Assay outcomes deposited in PubChem BioAssay by Center for Chemical Genomics, University of Michigan.
HIV TAR-Tat = HIV-1 TAR-Tat binding disruption; HIV-1 TAR RNA, Tat peptide displacement FRET; stronger effect = higher value; z-score (no concentration beside the values); 0.6% of 100,000 active;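 note: score is relative to mean and SD of negative controls; some compounds called inactive have numbers as strong as hits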
CDC25B CDK2 inh = human CDC25B-CDK2/CyclinA binding inhibition; P30305+P24941; HTRF CDC25B-CDK2/CyclinA binding, anti-His/anti-Flag; stronger effect = higher value; z-score (test concentration not listed); 0.72% of 94,000 active;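 note: score is relative to mean and SD of negative controls; strong numbers were not always called active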
Starred values were filed as active, the others as inactive; · = not tested or not shown.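 Rule for the calls: active = z-score from 3 up in half or more of its runs; inactive = the rest.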

Sequence of screens: HIV TAR-Tat	CDC25B CDK2 inh
O=C1c2ccccc2C(O)(Cc2ccccc2)N1Cc1cccnc1 (configuration not stated)
→ ·	-0.55
CC(NC(=O)CCC(=O)N1Cc2cccn2-c2ccccc21)C(=O)N1CCCCC1 (configuration not stated)
→ -0.75	·
O=C(NCCCc1ccco1)C1CCCN1c1nnc(N2CCCC2=O)s1 (configuration not stated)
→ 0.45	·
Cc1c(C(=O)O)oc2ccc(S(=O)(=O)N3CCN(c4cccc(Cl)c4)CC3)cc12
→ ·	-0.36
CCCOC(=O)COc1ccc2c3c(c(=O)oc2c1C)CCC3
→ ·	0.08
C=CCSc1nc2c(cnn2-c2ccc(F)cc2)c(=O)[nH]1
→ 1	·
Cc1[nH]c(C)c(S(=O)(=O)Nc2ccc(Cl)cc2)c1C(=O)N1CCCC1
→ 0.43	·
CCOC(=O)Cc1c(C)[nH]c(C(=O)OCC)c1CC(=O)OCC
→ ·	-1.5
O=C(NC1CCCC1)N1CCc2c([nH]c3ccccc23)C1c1ccccc1F (configuration not stated)
→ -0.31	·
O=C(Cn1ncc2c([nH]c3ccccc32)c1=O)Nc1cc(F)ccc1F
→ 1.3	·
CC(C)(C)c1csc(-c2ccc(-c3ccccn3)s2)n1
→ ·	-2.5
Cn1sc(=O)c2cc(S(=O)(=O)Oc3ccc(C(C)(C)C)cc3)ccc21
→ ·	-1.9
CC(C)Cn1cc(NC(=O)NC2CCCc3ccccc32)c2ccccc2c1=O (configuration not stated)
→ 2	·
COC(=O)C1Cc2c([nH]c3ccccc23)C(C(C)C)N1 (configuration not stated)
→ ·	-0.5
O=C(c1c[nH]c2ccc(Cl)cc2c1=O)N1CCCCC1
→ 1.9	-1.9

Next section:
Sequence of screens: HIV TAR-Tat	CDC25B CDK2 inh
CC(=O)c1ccc(N2CCN(CC(=O)Nc3ccc4c(c3)OCCO4)CC2)cc1
→ ·	0.04
CC1CC(=O)Nc2cc(S(=O)(=O)Nc3ccc(F)cc3Cl)ccc2S1 (configuration not stated)
→ 1.1	·
Cc1cc2oc(C(=O)NCC(c3ccco3)N3CCOCC3)cc(=O)c2cc1C (configuration not stated)
→ -0.52	-1.7
O=C1c2cccnc2C(=O)N1Cc1ccc(F)cc1S(=O)(=O)NCc1ccco1
→ 0.08	·
N#Cc1nc(COc2ccccc2F)oc1NCc1cccnc1
→ -2.9	2
O=C(NCCc1csc2c1CCCC2)NCc1ccccc1
→ -0.34	·
COCCN1C(=O)c2oc3cc(C)c(C)cc3c(=O)c2C1c1ccc(C(=O)OC)cc1 (configuration not stated)
→ 1.5	-0.71
O=C(Nc1ccc(N2CCCCC2)cc1)c1cccs1
→ ·	-1.2
CCCCCCCNC1CC(=O)N(c2ccc(Cl)cc2)C1=O (configuration not stated)
→ 0.06	0.21
COc1cc(C2c3c(-c4c(C)cc(C)cc4O)n[nH]c3C(=O)N2Cc2ccco2)ccc1O (configuration not stated)
→ 2	0.15
CCOC(=O)C1CCCN(S(=O)(=O)c2cc3c4c(c2)CC(=O)N4CCC3)C1 (configuration not stated)
→ 2.2	·
CN(C)c1ccc(C2NCCCN2C)cc1 (configuration not stated)
→ ·	-0.2
Cc1nnc(SC2CCN(S(=O)(=O)c3ccc4c(c3)OCCO4)CC2)s1
→ -2	-1
COc1cc(C2c3c(oc4ccccc4c3=O)C(=O)N2c2nnc(C)s2)ccc1OCCC(C)C (configuration not stated)
→ 0.24	0.56
Cc1ccc(N2C(=O)C3N=NN(Cc4ccc(F)cc4)C3C2=O)cc1 (configuration not stated)
→ 3	-0.58

Record cards, from the list above. Order of screens: HIV TAR-Tat, CDC25B CDK2 inh
CN(C)c1ccc(C2NCCCN2C)cc1 (configuration not stated) is listed with ·, -0.2
CCCCCCCNC1CC(=O)N(c2ccc(Cl)cc2)C1=O (configuration not stated) is listed with 0.06, 0.21
CC1CC(=O)Nc2cc(S(=O)(=O)Nc3ccc(F)cc3Cl)ccc2S1 (configuration not stated) is listed with 1.1, ·
O=C(NCCc1csc2c1CCCC2)NCc1ccccc1 is listed with -0.34, ·
O=C1c2cccnc2C(=O)N1Cc1ccc(F)cc1S(=O)(=O)NCc1ccco1 is listed with 0.08, ·

Next section.
Sequence of screens: HIV TAR-Tat	CDC25B CDK2 inh
CCOC(=O)c1cnn(-c2nc(CC)nc3sc4c(c23)CCCC4)c1N
→ 0.77	·
OCc1cn(-c2ccccc2)nc1-c1ccc(Cl)cc1
→ ·	-0.98
COc1ccc(-c2n[nH]c3c2cnc2ccc(F)cc23)cc1
→ -0.62	·
O=C1Nc2ccccc2OC1CC(=O)N1CCN(c2ccccc2)CC1 (configuration not stated)
→ 2.8	-2
COc1cc(C2C(C(=O)OC(C)C)=C(C)N=C3SCCC(=O)N32)ccc1OCc1ccccc1 (configuration not stated)
→ -0.63	-0.82
CCCCN(C)c1ncnc2onc(C)c12
→ -0.15	·
CCCCC(=O)N1CC2(C)CN(C(=O)CCCC)CC(C)(C1)C2=O
→ 3.4	-1.6
CCOC(=O)c1cc(S(=O)(=O)Nc2ccc(Br)c(C)c2)cn1C
→ 1.5	·
Cc1ccc(S(=O)(=O)c2nnn3c2nc(N2CCOCC2)c2sccc23)cc1
→ 0.2	·
O=C1CCCc2c1cc(C(=O)NCCO)c(=O)n2-c1ccc(Cl)cc1
→ -1.6	-0.25
CC(C)(C)c1nnc(Nc2ccccc2F)[nH]c1=O
→ -0.49	-1.1
Cc1c(C(=O)c2ccc(Cl)cc2)oc2cc(N)ccc12
→ -2.2	·
CC(NC(=O)C(=O)NCc1ccco1)C(c1cccs1)N1CCN(C)CC1 (configuration not stated)
→ 1.3	-0.2
Cc1cc(=O)n2[nH]c(NC(=O)c3ccc(C(C)(C)C)cc3)nc2n1
→ -0.56	-0.38
Cc1[nH]n(-c2ccccc2)c(=O)c1C(c1ccco1)c1c(C)[nH]n(-c2ccccc2)c1=O
→ 0.92	-1.8

(listing goes on)
Sequence of screens: HIV TAR-Tat	CDC25B CDK2 inh
O=c1sc2ccccc2n1Cc1nnc(-c2ccccc2)o1
→ -0.3	-2.2
Cc1ccc(N2C(=O)C3ON(c4ccccc4)C(c4ccncc4)C3C2=O)cc1C (configuration not stated)
→ -0.53	-2.3
CC(C)CC(NS(=O)(=O)c1ccc2c(c1)oc(=O)n2C)C(=O)NC1CCCCCCC1 (configuration not stated)
→ ·	-0.58
COc1cccc(N2C(=O)C3ON(c4ccccc4)C(c4cccs4)C3C2=O)c1 (configuration not stated)
→ ·	-1.6
CC(C)(C)c1ccc(CNc2ccc([N+](=O)[O-])cn2)cc1
→ -0.61	-1.6
O=C(COC(=O)c1ccccc1C(=O)c1ccccc1)c1ccc(Cl)cc1
→ ·	-0.85
CC1CCCN(c2cc(NCCN3CCCC3)c3c4c(onc24)-c2ccccc2C3=O)C1 (configuration not stated)
→ -1	-2.1
O=C1c2ccccc2C(=O)C1C1c2ccccc2Oc2ccccc21
→ ·	-0.15
O=C1C2N=NN(Cc3c(F)cccc3Cl)C2C(=O)N1c1ccc(F)cc1 (configuration not stated)
→ 2.4	-2.3
COc1ccccc1C1CC(=O)C2=C(C1)NC(C)=C(C(=O)OCCOC(C)C)C2c1ccsc1 (configuration not stated)
→ -0.92	-2.6
COc1ccc2c(c1)CC(C1(O)C(=O)N(C)c3ccccc31)C2=O (configuration not stated)
→ 0.88	-2.4
Cc1c(C2CCN(S(C)(=O)=O)CC2)c2ccccc2n1Cc1ccc(Cl)cc1
→ 0.34	·
Cc1ccc(-c2nc(N)n(C(=O)C3CC3)n2)cc1
→ 0.23	-1.9
N#Cc1c(NC(=O)c2nn(-c3ccc(Cl)cc3)ccc2=O)sc2c1CCCC2
→ 0.91	-2.7
CN(C(=O)c1noc2c1CCc1sccc1-2)c1ccccc1
→ 0.33	·

(next part)
Sequence of screens: HIV TAR-Tat	CDC25B CDK2 inh
CN(C(=O)CSc1nc2c(c(=O)[nH]1)CCCC2)c1ccccc1
→ 3	-2.2
CC1CCC(NC(=O)CCCc2nnc3n(C)c(=O)c4sccc4n23)CC1 (configuration not stated)
→ 4.2	·
Cc1ccccc1-c1noc(N)c1C#N
→ 0.91	-0.25
CCCOc1nc2c(c(=O)n(C)c(=O)n2C)n1C(C)c1ccccc1 (configuration not stated)
→ -1.3	-0.04
Cc1cccc(-n2cc(-c3ccccc3)c3c(NCCCN4CCOCC4)ncnc32)c1
→ ·	-1.6
COc1cc(OC)c(N(C)C(=O)c2sc3nc4n(c(=O)c3c2C)CCCC4)cc1Cl
→ -0.31	·
COc1ccc(S(=O)(=O)NCCc2cc3ccc(OC)cc3[nH]c2=O)cc1
→ ·	-0.61
Cc1noc(/C=C/N(C)C)c1S(=O)(=O)N(C)c1ccc2c(c1)OCO2
→ 0.94	·
FC(F)(F)c1c2c(nc3cc(-c4ccc(Cl)cc4)nn13)-c1ccccc1C2
→ ·	-0.92
CCCCC#Cc1cncc(C(=O)NNC(=O)c2ccccc2)c1
→ ·	-1.4
Nc1nc2c(C(=O)NCc3ccncc3)nnn2c2ccccc12
→ ·	-0.5
CCOc1ccc(OCC)c(NC(=O)C2=C(C)C(=O)OC23CCC(C)CC3)c1 (configuration not stated)
→ -0.25	-2.5
O=C(CCc1nnc2ccc(N3CCCC3)nn12)NCCc1c[nH]c2ccccc12
→ -0.44	·
Cc1ccc(C)c(Nc2c(-c3ccccc3O)nc3ncccn23)c1
→ 0.7	-2.2
Cc1ccn2c(Nc3ccccc3)c(-c3ccc(C)o3)nc2c1
→ ·	-0.24

A different layout for 2 compounds above:
SMILES: CCCOC(=O)COc1ccc2c3c(c(=O)oc2c1C)CCC3
  HIV TAR-Tat: ·
  CDC25B CDK2 inh: 0.08
SMILES: CN(C)c1ccc(C2NCCCN2C)cc1 (configuration not stated)
  HIV TAR-Tat: ·
  CDC25B CDK2 inh: -0.2

Carrying on:
Sequence of screens: HIV TAR-Tat	CDC25B CDK2 inh
NC(=O)C1CCN(c2nc3c(S(=O)(=O)c4ccccc4)nnn3c3ccsc23)CC1
→ 0.62	·
CCCCNc1ncnc2c1oc1nc3c(cc12)COC(C)(C)C3
→ -0.63	·
COc1ccc(Nc2c(O)c(=O)c2=O)cc1OC
→ 0.77	·
N#Cc1cccc(CS(=O)(=O)c2ccccn2)c1
→ ·	0.6
CCCCN1C=C(OC(=O)COc2ccc3ccccc3c2)c2ccccc2S1(=O)=O
→ 1.5	-1.3
NC(=O)CSc1nc2c(c(=O)n1-c1ccccc1)SCC2
→ ·	-1
COc1ccc(C)cc1NS(=O)(=O)c1ccc(-c2cnc(C3CC3)o2)cc1
→ 0.99	·
Cc1onc(-c2ccc(F)cc2F)c1C(=O)O
→ 0.09	-0.08
O=C(O)CSc1nc2ccc(NC(=O)COc3ccc(Cl)cc3)cc2s1
→ 1.1	0.46
Cn1ccnc1SCC(=O)Nc1nc2c(s1)C(=O)CC(C)(C)C2
→ -1.4	-0.19
Cc1ccc(-c2cnnc(-n3nc(C)c4c3NC(=O)CC4c3ccc(F)cc3F)n2)cc1 (configuration not stated)
→ 0.43	-1.6
Cc1ccc(C2C3=C(Nc4[nH]c(=O)[nH]c(=O)c42)c2ccccc2C3=O)cc1 (configuration not stated)
→ 1.1	-0.66
COC(=O)c1c(C)oc(=O)c(Br)c1C
→ ·	-1.7
O=S1(=O)C[C@H](N2CCN(C/C=C/c3ccccc3)CC2)[C@@H](S(=O)(=O)c2cccs2)C1
→ 1.3	-0.42
O=C(Cn1ncn2cccc2c1=O)NCc1ccco1
→ 1.1	-1.9

The listing continues:
Sequence of screens: HIV TAR-Tat	CDC25B CDK2 inh
CCCCOC(C)n1cc(Cl)c(=O)[nH]c1=O (configuration not stated)
→ 1.1	-0.42
Cc1cc(C)cc(Nc2ncnc3onc(-c4ccc(F)cc4)c23)c1
→ -0.07	·
Cc1cc(C)n2nc(NC(=O)c3cccs3)nc2n1
→ 0.85	-0.34
CCN(CCc1ccncc1)C(=O)Cc1sc(C)nc1-c1cccs1
→ -1	-0.46
COc1ccc(C2SCC(=O)N2c2ccc(OC)cc2)cc1 (configuration not stated)
→ ·	-1.3
O=C(Cn1ncn2nc3c(c2c1=O)CCCC3)Nc1ccc2c(c1)OCO2
→ 1.6	·
Cc1cc(=O)nc2c3ccccc3n(C(C)C(=O)NCCCN3CCOCC3)n12 (configuration not stated)
→ 0.4	-1.8
Cn1c(=O)c2c(-c3ccc(Br)cc3)n(C(C)(C)C)cc2n(C)c1=O
→ 1.6	-3.1
O=c1[nH]nc(SCCS(=O)(=O)c2ccc(F)cc2)n1Cc1ccco1
→ ·	-1.6
COc1ccc(NC(=O)c2oc3ccccc3c2NC(=O)c2cc(=O)c3cc(Cl)ccc3o2)cc1
→ -1.1	0.14
COc1cc(OC)c(C2Oc3ccccc3C3CC(c4cccs4)=NN32)cc1OC (configuration not stated)
→ ·	0.1
COCc1nn2cc(-c3cccc(OC)c3)nc2s1
→ 0.18	-2.4
Cc1ccccc1Cn1nc(-c2ccc(C)c(S(=O)(=O)N3CCOCC3)c2)ccc1=O
→ -1.2	0.85
Cc1ccc(-c2csc(Nc3ccccn3)n2)cc1
→ 0.8	-0.98
O=C(Nc1nc2ccc(F)cc2s1)c1nn(-c2ccc(Cl)cc2)ccc1=O
→ -1.2	-1.2

(continued)
Sequence of screens: HIV TAR-Tat	CDC25B CDK2 inh
O=C(Nc1ccc(F)cc1)N1CCOc2ccc(Cl)cc21
→ 2.5	·
CCCCN(C)C(=O)C(=O)c1c[nH]c2ccccc12
→ ·	-1.4
Cc1ccc(NC(=O)C(=O)NCc2ccc(/C=N\NC(=O)C(=O)Nc3ccc(Br)cc3)o2)cc1C
→ ·	-0.73
CC1(C)CC(=O)C2=C(C1)OC(N)=C(C#N)C2c1ccccc1F (configuration not stated)
→ ·	-0.53
O=C(NCCN1CCCC1)c1cccc(C(=O)NCCN2CCCC2)n1
→ 2.5	·
CCN(CC)C(=O)c1sc(NC(=O)c2ccnn2C)c(C(=O)OC(C)C)c1C
→ ·	0.14
